Source: PubChem (several laboratories)
INS promoter inh = TRM-6 insulin promoter activity inhibition | TRM-6 cells (human fetal islet line), insulin promoter-eGFP reporter, imaging; reporter expression induced with tamoxifen | inhibition, % at 2 µM | 0.9% of 130,000 active | AID 1273;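 active = inhibition above the mean plus 3 SD, with well images judged a real hit on visual review, cut at about 60% in these data, passing the limit was not always enough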
RGS16-Gao = regulators of human RGS16-Galphao interaction; O15492+P09471; bead-based flow cytometry RGS16-Galphao binding, fluorescence; actives lie on both sides; binding response (% of control), % at 10 µM; 0.38% of 220,000 active; AID 1441;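 active = below 25% or above 175%, edge rows of some plates excepted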;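 also: Galphao activated by GDP with aluminum fluoride before binding; 100% = wells without compound and 0% = beads without RGS; some results beyond the cut were filed as inactive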
Target sequence (O15492 whole entry, looked up): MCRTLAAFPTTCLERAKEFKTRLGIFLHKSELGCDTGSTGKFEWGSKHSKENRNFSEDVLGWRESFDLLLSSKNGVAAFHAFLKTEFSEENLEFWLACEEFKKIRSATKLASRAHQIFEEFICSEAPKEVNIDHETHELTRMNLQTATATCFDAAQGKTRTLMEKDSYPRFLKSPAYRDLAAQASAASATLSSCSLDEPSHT
Target sequence (P09471 whole entry, looked up): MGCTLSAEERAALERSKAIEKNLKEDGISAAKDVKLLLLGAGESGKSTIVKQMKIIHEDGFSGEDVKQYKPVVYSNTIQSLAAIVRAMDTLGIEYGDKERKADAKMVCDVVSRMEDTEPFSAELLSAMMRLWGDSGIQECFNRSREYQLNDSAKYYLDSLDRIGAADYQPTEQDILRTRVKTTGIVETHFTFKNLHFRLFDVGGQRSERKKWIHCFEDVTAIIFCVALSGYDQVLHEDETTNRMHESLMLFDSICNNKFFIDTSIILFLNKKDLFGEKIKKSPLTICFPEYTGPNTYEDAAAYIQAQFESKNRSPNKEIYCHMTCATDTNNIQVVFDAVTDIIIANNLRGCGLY
HSV augment = increases HSV replication in cells. 0.005% of 220,000 active. maximum fold increase. HSV replication augmentation in cells, fold increase;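 active = peak rise of 1.5-fold or more in the series; tested in PC3 cells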;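 also: first round at 10 µM; read as green reporter fluorescence; hits show the peak of a series up to 25 µM; 1 = signal of infected wells without compound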
PKD1 kinase inh = PKD1 (human) kinase inhibition. Q15139. PKD1 kinase fluorescence polarization assay. 0.056% of 200,000 active. inhibition, %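 (about 10 µM by stock and volumes)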. AID 797;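 active = inhibition of 50% or more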;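 also: controls were vehicle for no effect and a reference inhibitor for full effect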
GALR2 ag = agonists of human galanin receptor 2 (GALR2); O43603; GALR2-expressing cells, agonist activation read-out; activation, %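 (tested at 5 µM)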; 0.48% of 140,000 active; AID 803;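 active = above mean plus 3 SD of all compounds, about 5% in these data, not always enough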;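 also: 0% = vehicle buffer wells and 100% = reference agonist at full effect; tested in CHO reporter cells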
Target sequence (O43603 whole entry, looked up): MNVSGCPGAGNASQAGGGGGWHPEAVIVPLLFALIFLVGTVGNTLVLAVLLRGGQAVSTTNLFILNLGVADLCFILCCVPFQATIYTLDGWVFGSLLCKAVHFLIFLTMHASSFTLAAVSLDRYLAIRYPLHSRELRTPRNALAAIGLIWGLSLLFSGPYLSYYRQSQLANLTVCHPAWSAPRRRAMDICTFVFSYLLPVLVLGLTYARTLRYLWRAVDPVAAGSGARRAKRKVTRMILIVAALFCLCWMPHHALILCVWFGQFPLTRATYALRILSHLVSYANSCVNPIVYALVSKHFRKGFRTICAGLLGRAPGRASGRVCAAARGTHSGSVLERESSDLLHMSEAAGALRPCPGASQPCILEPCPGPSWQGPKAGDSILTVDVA
INS promoter inh cell count = second read-out of INS promoter inh, no call of its own (marks repeat the call); normalized cell count, %; measured here: cell count, toxicity; reference of the scale not given here;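 cells exposed to compound for 48 h; stained nuclei by imaging scaled within each plate; lower means fewer cells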
HSV augment primary fold = also measured in HSV augment; calls as there; fold increase; compound at 10 µM; measured here: primary screen fold increase 10 uM; tested in PC3 cells;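 GFP signal in the first replicate; 1 = infected wells without compound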
* hit, by the source's call; i = inactive; . = no result given.

The line under a structure holds: INS promoter inh	INS promoter inh cell count	RGS16-Gao	HSV augment	HSV augment primary fold	PKD1 kinase inh	GALR2 ag
CC(OC(=O)c1ccc2ccccc2n1)C(=O)c1ccccc1 (centres undefined)
→ -42	75	108	i	1.1	5	.
CCc1c(C)sc(NC(=O)c2cc(-c3ccco3)on2)c1C#N
→ 30	137	101	i	1	-1	-2.1
N/C(=N\c1nc2c(c(=O)[nH]1)CCC2)Nc1ccccc1C(F)(F)F
→ .	.	99	i	0.99	6	-3.0
Nc1nc(SCC(=O)NC2CCCCC2)[nH]c(=O)c1-c1ccccc1
→ -53	96	99	i	0.98	-5	-0.7
Cc1sc(N/N=C/c2cc([N+](=O)[O-])ccc2O)nc1-c1ccccc1
→ 24	94	99	i	0.68	0	.
O=C(NC(Cc1ccccc1)C(=O)O)c1ccco1 (centres undefined)
→ .	.	101	i	0.96	-8	.
COc1ccc(Nc2oc(-c3cccs3)nc2C#N)cc1
→ .	.	102	i	0.91	11	0.6
CN1CCC(=NNC(=O)c2ccc(N(Cc3ccccc3Cl)S(C)(=O)=O)cc2)CC1
→ -60	73	109	i	0.83	-2	-1.6
O=C(Cc1ccc([N+](=O)[O-])cc1)NCc1ccccn1
→ -27	58	92	i	1	-7	.
CCOC(=O)CN(C(=O)COc1nc(-c2ccccc2)cc(C)c1C#N)c1ccccc1
→ .	.	98	i	0.97	.	.
Cc1ccc(-c2nnn(CC(=O)N(c3cccc(F)c3)C(C(=O)NC3CCCC3)c3ccco3)n2)o1 (centres undefined)
→ -4	126	94	i	1.4	-4	1.5
CCC1CCCCN1c1nc(-c2cccc(OC)c2O)nc2ccccc12 (centres undefined)
→ -47	89	103	i	1	-28	-2.5
CCOc1ccc(CCNC(=O)C2CCCN(c3nn4c(=O)cc(C)nc4s3)C2)cc1OCC (centres undefined)
→ -48	121	114	i	1.1	5	-2.0
Cc1cc(OCC(=O)Nc2ccc(S(=O)(=O)N3CCN(C)CC3)cc2)cc(C)c1Cl
→ -40	63	103	i	0.83	-3	0.0
O=C(N/N=C/c1ccccc1)c1cc(=O)[nH]c2ccccc12
→ .	.	98	i	0.93	-7	0.5
COc1ccc2cc(C(c3nnnn3Cc3ccc(F)cc3)N3CCCCCC3)c(=O)[nH]c2c1 (centres undefined)
→ .	.	102	i	0.79	-5	-0.8
CN1CCN(C(=O)C23CCC(C)(C(=O)C2Br)C3(C)C)CC1 (centres undefined)
→ .	.	98	i	0.9	.	.
Cc1cccc(C)c1NC(=S)N(CCCN1CCN(C)CC1)Cc1cccs1
→ -27	112	97	i	0.89	-5	.
C1CCN(CCCNC2C3CC4CC(C3)CC2C4)C1 (centres undefined)
→ .	.	106	i	1	7	-0.4
C/C(=N\NC(=O)Cc1ccccc1)c1cccs1
→ .	.	97	i	0.77	1	-3.8
O=C(/C=C/c1ccccc1)N/C(=C/c1ccccc1)C(=O)NCCCO
→ -44	59	149	i	1.1	-9	-2.0
Cc1ccccc1NC(=S)Nc1cccc([N+](=O)[O-])c1
→ -22	95	108	i	0.96	-3	-2.6
C=C1CSc2nc3ccccc3c(=O)n21
→ 46	168	103	i	0.75	6	-0.5
Cc1cc(C)c2c3c(sc2n1)C(c1ccccc1)C(C#N)=C(N)O3 (centres undefined)
→ 39	83	95	.	.	-9	-1.5
Cc1c(Br)c([N+](=O)[O-])nn1CC(=O)Nc1sc2c(c1C(=O)OC(C)C)CCC(C)C2 (centres undefined)
→ .	.	75	i	1.1	-1	0.4
CCCOc1ccc(N2C(=O)CC(N(Cc3ccccc3)N=O)C2=O)cc1 (centres undefined)
→ .	.	80	i	1.1	.	.
CC1(C)CC(=O)c2c(O)cc(O)cc2O1
→ -57	164	105	i	1.1	-3	-0.5
C#CCOCCOCCOCCNc1nc(N2CCN(C(=O)[C@H]([C@@H](C)CC)n3cc([C@@H](N)Cc4ccc(O)cc4)nn3)CC2)nc(N2CCN(C(=O)[C@H]([C@@H](C)CC)n3cc([C@@H](N)CC(C)C)nn3)CC2)n1
→ .	.	100	i	0.88	10	.
CCOc1ccc(-c2nn(-c3ccccc3)cc2/C=C2\SC(=S)N(Cc3ccco3)C2=O)cc1
→ .	.	98	i	0.96	1	-0.8
COc1ccc(NC(=O)CSc2nnc(CN3CCOCC3)n2-c2ccccc2)cc1Cl
→ -81	101	100	i	0.84	-7	-1.4
O=C(NCc1nc2ccccc2[nH]1)c1cccc(S(=O)(=O)N2CCOCC2)c1
→ -11	43	96	i	1.2	0	-0.6
O=C(NC1CCCc2ccccc21)C1CCN(S(=O)(=O)N2CCCCCC2)CC1 (centres undefined)
→ 31	139	101	i	1.2	-9	-1.5
Fc1ccc(-c2nn3c(C4COc5ccccc5O4)nnc3s2)cc1 (centres undefined)
→ -6	97	90	.	.	-12	-1.7
CC(=O)N(C)c1ccc(OCC(O)Cn2c(C)nc3ccccc32)cc1 (centres undefined)
→ -50	97	113	i	1.2	-10	.
O=C(Cc1ccc(Br)cc1)NNC(=O)Nc1ccc(Cl)cc1
→ .	.	108	i	0.96	3	.
O=C(CSc1nc2c([nH]c3ccccc32)c(=O)n1-c1ccc(F)cc1)NCc1ccco1
→ .	.	102	.	.	1	-1.4
COc1cc(C(C)=O)ccc1Oc1cnccn1
→ 31	84	139	i	1	-4	.
CN1CCN(c2cc(=O)n(-c3ccc(Cl)cc3)c(=O)[nH]2)CC1
→ .	.	186	i	0.91	-16	-2.8
CCCCN(C(=O)NC(=O)C1=C(N2CCOCC2)/C(=C/c2ccccc2)CC1)S(C)(=O)=O
→ 8	102	105	.	.	-13	-1.1
Cc1cc(N2CCN(c3ccccc3Cl)CC2)n2cc(-c3ccccc3)nc2n1
→ 23	117	100	i	0.94	4	2.1
CC1(C(=O)NCCc2c[nH]c3ccccc23)C=CCN1C(=O)c1ccccc1 (centres undefined)
→ -24	84	86	i	0.92	-12	-2.7
CCNc1nc(NC(C)C)nc(ON=C(C)C)n1
→ 11	146	97	i	0.96	-7	-1.5
Cc1c(C(=O)OCC(=O)c2ccc3c(c2)OCCO3)oc2ccccc12
→ .	.	81	i	0.8	-1	-1.1
CCOC(=O)N1CCC(NC(=O)Cn2c3c(c(-c4ccccc4Cl)cc2=O)CCC3)CC1
→ .	.	100	i	0.82	8	-1.0
O=C(Nc1ccc(F)cc1)C1CCC(CNc2c(N3CCCCC3)c(=O)c2=O)CC1 (centres undefined)
→ .	.	103	i	0.92	.	.
CCOC(=O)c1c(C)[nH]c(C(=O)COC(=O)c2cnc(C)cn2)c1C
→ .	.	106	i	1	-5	-2.9
Cc1csc(NC(=O)CSc2nnnn2C)n1
→ 0	93	108	i	1.1	-1	-1.7
O=C1CCC(=O)N1CC(=O)N(c1ccccc1)c1ccccc1
→ -43	89	100	i	1	-2	.
CCOC(=O)c1[nH]c(=O)[nH]c1COC(=O)c1cc2ccccc2o1
→ 50	81	107	i	0.91	-8	-1.2
CCOC(=O)c1c(C)[nH]c(C(=O)COC(=O)/C=C/c2cccc(OC)c2OC)c1C
→ -12	60	74	i	1	-3	-1.8
CCN(CC)C(NC(=O)Cc1ccccc1)C(Cl)(Cl)Cl (centres undefined)
→ 6	87	106	i	0.89	5	0.4
CCn1c(O)c(/C=C/C=C/C=Nc2ccccc2)sc1=S
→ -61	147	86	i	1.2	-3	.
O=C(CS)Nc1ccc2ccccc2c1
→ .	.	97	i	0.97	.	.
COc1ccc(OCc2nc(N)nc(Nc3ccc(C)cc3)n2)cc1
→ 5	136	95	i	0.76	-6	1.1
O=C(COC(=O)CNC(=O)c1ccccc1)Nc1ccc(F)c([N+](=O)[O-])c1
→ -58	119	110	i	1.1	1	.
COC(=O)c1ccccc1NC(=O)c1cnn2c(C(F)F)cc(C3CC3)nc12
→ -9	60	51	i	0.72	6	1.1
CCOC(=O)c1nnn(-c2nonc2-n2cccc2)c1CN1CCC(C)CC1
→ -30	60	100	i	1.2	-11	-0.6
COC(=O)Cc1ccc(NC(=S)NCCSc2ccc(C)cc2)cc1
→ .	.	99	i	0.82	-2	.
Cc1cc(N/N=C2\CC(C)CC(C)(C)C2)nc2ccccc12 (centres undefined)
→ -27	103	114	i	0.9	-4	.
COc1cccc(NC(=S)N2CCc3cc(OC)c(OC)cc3C2)c1
→ .	.	102	i	1.1	.	.

Following part:
The line under a structure holds: INS promoter inh	INS promoter inh cell count	RGS16-Gao	HSV augment	HSV augment primary fold	PKD1 kinase inh	GALR2 ag
CCOc1cc(C(=O)OCC(=O)Nc2cc(C)on2)cc(OCC)c1OCC
→ 28	89	104	i	0.94	-4	-1.1
S=C(NCCSCc1ccccc1Cl)Nc1ccccc1
→ -4	66	107	i	0.92	7	-1.5
CCCNC(=O)c1cccc(Cn2cc(Br)c([N+](=O)[O-])n2)c1
→ 8	73	31	i	0.96	5	1.2
O=C(NCCc1ccccc1)C(c1ccccc1)N(C(=O)c1csnn1)C1CC1 (centres undefined)
→ .	.	106	i	0.98	-9	.
CCN1/C(=C/C(=S)Nc2ccccc2)Sc2ccccc21
→ .	.	106	i	1.1	.	.
NC(N)=Nc1nc2cc([N+](=O)[O-])ccc2o1
→ .	.	104	i	0.79	-7	.
CN1C(=O)c2c(sc3c2CCCC3)NC1c1ccccc1O (centres undefined)
→ 15	100	99	i	1	-12	-0.8
Cc1cc(NC(=O)c2cnn3cccnc23)n(-c2ccccc2)n1
→ -282	87	83	i	0.89	4	-1.1
COc1ccc(/C=N/n2c(-c3n[nH]c4c3CCC4)n[nH]c2=S)c(OC)c1OC
→ .	.	99	i	0.93	.	.
Cc1cc(Br)ccc1NC(=S)N1CCOCC1
→ .	.	97	i	1	.	.
Cc1cccc(C)c1NC(=O)C(=O)NCCCN1CCOCC1
→ 24	111	94	i	0.96	-8	-1.0
O=C(NCc1ccccn1)c1ccc(Cl)cc1Cl
→ -272	71	99	i	0.93	-8	-1.7
CN(C)S(=O)(=O)c1cc(NC(=O)CN2CCc3ccccc32)ccc1Cl
→ -160	170	106	i	1.1	-6	.
CC(=O)N1CCN(C(=O)CCc2c[nH]c3ccccc23)CC1
→ 21	93	98	i	0.74	-5	-1.5
CC(C)(C)OC(=O)N1CCOCCOCCN(C(=O)OC(C)(C)C)CCOCC1
→ .	.	99	i	0.86	-9	-0.5
CCn1c(COc2ccccc2)nnc1SCC(=O)Nc1cc(OC)ccc1OC
→ 18	73	112	i	1	-2	-0.6
COc1ccccc1CCNC(=O)c1cc(-c2ccccn2)nc2ccc(Br)cc12
→ .	.	97	i	0.99	-3	.
O=C1C2CCCN2C(=S)N1Cc1ccccc1 (centres undefined)
→ 42	108	109	i	0.98	-7	.
O=C1N=C(N2CCN(c3ccccc3)CC2)S/C1=C/c1ccco1
→ .	.	110	i	0.87	.	.
Cn1c(SCC(=O)OCc2ccccc2)nnc1-c1ccco1
→ 14	84	90	i	0.95	-6	-0.9
Cc1ccc(-c2cc(Cc3cccs3)c(=O)[nH]n2)cc1
→ .	.	116	i	1.1	.	.
O=C(O)c1ccccc1C(=O)OCc1ccccc1
→ 4	123	102	i	0.92	9	0.2
CC(=O)Nc1ccc(S(=O)(=O)Oc2cccc(N3C(=O)C4CCCCC4C3=O)c2)cc1 (centres undefined)
→ -14	145	131	i	1	12	-2.4
COc1ccc(N2C(=O)CC(Cc3ccccc3)C2=O)cc1 (centres undefined)
→ .	.	100	i	0.84	2	-2.7
FC(F)Oc1ccc(NC(=S)Nc2ccc3cn[nH]c3c2)cc1
→ .	.	103	i	1	.	.
Cc1cc(C)cc(-c2nnc(SCC(=O)NCc3cccs3)o2)c1
→ -26	126	104	i	0.94	7	-1.1
CCCCOc1ccc(NC(=O)CN2CCN(C(=O)OCC)CC2)cc1
→ 0	127	103	i	1.1	-1	-1.3
COc1cccc(NC(=O)COC(=O)/C=C/c2ccc(Cl)cc2Cl)c1
→ -12	111	100	i	0.94	-1	-1.0
CCCCCCCNC1=CC(=O)CC(c2ccccc2)C1 (centres undefined)
→ 30	87	47	i	0.76	-4	0.0

3 compounds already listed, sorted by the value under GALR2 ag, falling:
SMILES	RGS16-Gao	HSV augment	HSV augment primary fold	PKD1 kinase inh	GALR2 ag
CN1C(=O)c2c(sc3c2CCCC3)NC1c1ccccc1O (centres undefined)	99	i	1	-12	-0.8
Cn1c(SCC(=O)OCc2ccccc2)nnc1-c1ccco1	90	i	0.95	-6	-0.9
Cc1cc(NC(=O)c2cnn3cccnc23)n(-c2ccccc2)n1	83	i	0.89	4	-1.1

Random excerpt: 2 records from the list, in no set order.
The line under a structure holds: INS promoter inh	INS promoter inh cell count	RGS16-Gao	HSV augment	HSV augment primary fold	PKD1 kinase inh	GALR2 ag
N/C(=N\c1nc2c(c(=O)[nH]1)CCC2)Nc1ccccc1C(F)(F)F
→ .	.	99	i	0.99	6	-3.0
O=C(Cc1ccc([N+](=O)[O-])cc1)NCc1ccccn1
→ -27	58	92	i	1	-7	.
